# Bioassay records deposited in PubChem by National Center for Advancing Translational Sciences (NCATS).
# Menin MLL FP FL – qHTS Assay for Inhibitors Targeting the Menin-MLL Interaction in MLL Related Leukemias: Competition With Fluorescein Labeled MLL-derived Peptide; 290,000 tested, under 10 active; FP activity change, % at 61.4 µM; Fluorescence polarization, fluorescein-MLL peptide displacement from menin; inconclusive = falling polarisation curve, or a change in total fluorescence; inactive = total fluorescence flat and polarisation flat or rising; no compound was filed as active; the % refers to the polarisation; negative = inhibition;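 further: % of control where 0% means no effect; inhibitors lower the polarisation; unlabelled MLL peptide was the positive control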
# TRPV1 potentiator – HTS Assay for Compounds that Act as Potentiators of the Vanilloid Receptor 1. potentiation, % at 8.33 µM. hit rate 0.02% among 320,000. TRPV1-expressing cells, Fluo-8 calcium influx, capsaicin EC20 potentiation; host cell line not named in the record; control for the full effect not named in the record. AID 540277, 2011; active means potentiation above 80%; inconclusive means 30% to 80%; inactive means below 30%; further: 0% is about no effect
# Target sequence (Q8NER1 whole entry, looked up): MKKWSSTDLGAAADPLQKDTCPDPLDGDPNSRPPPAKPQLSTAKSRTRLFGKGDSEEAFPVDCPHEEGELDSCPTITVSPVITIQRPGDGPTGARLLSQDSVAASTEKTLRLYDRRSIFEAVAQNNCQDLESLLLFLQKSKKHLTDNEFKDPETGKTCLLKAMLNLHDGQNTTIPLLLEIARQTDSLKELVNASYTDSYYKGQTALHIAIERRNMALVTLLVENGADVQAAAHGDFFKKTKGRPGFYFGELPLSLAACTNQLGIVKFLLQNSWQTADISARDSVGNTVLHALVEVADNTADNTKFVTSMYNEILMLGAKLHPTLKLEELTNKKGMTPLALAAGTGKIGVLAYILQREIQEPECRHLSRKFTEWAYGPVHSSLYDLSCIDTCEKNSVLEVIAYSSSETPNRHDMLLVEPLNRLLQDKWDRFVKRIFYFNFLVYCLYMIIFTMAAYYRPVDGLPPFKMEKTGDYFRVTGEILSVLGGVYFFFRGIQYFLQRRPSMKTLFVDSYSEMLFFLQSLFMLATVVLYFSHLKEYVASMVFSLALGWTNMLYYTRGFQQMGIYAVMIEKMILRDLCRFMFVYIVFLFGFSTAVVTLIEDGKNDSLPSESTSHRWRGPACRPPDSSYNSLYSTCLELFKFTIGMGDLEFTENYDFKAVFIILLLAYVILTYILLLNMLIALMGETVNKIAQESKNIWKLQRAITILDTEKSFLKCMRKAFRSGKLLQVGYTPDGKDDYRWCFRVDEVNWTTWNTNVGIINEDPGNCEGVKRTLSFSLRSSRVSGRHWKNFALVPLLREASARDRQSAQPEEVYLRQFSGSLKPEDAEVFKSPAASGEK
#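 TRPV1-expressing cells were cultured overnight at 35.5C and loaded with Fluo-8 calcium dye for 40 to 90 min at room temperature. After a 10 s baseline, compound was added and calcium influx was read kinetically for 3 min (ex 480/em 520 nm).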
# CtBP-E1A inh – qHTS Assay for Inhibitors of the CtBP/E1A Interaction; CtBP / adenovirus E1A interaction (AlphaScreen); AlphaScreen GST-E1A/His-CtBP binding, 1536-well; stronger effect = lower value; control for the full effect not named in the record; activity change, % (concentration not given with the values); hit rate 0.49% among 340,000; in the data active means activity change below about -65%; inconclusive means about -30% to -65%; inactive means above about -30%; further: on the % scale 0 is the no-effect control and ±100 the full control effect
#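 Steps: dispense buffer (Tris pH 8.0, NaCl 300 mM, TCEP 1 mM, BSA, Tween 20); add 5X protein mix (GST-E1A, His-CtBP, 125 nM each); pin 23 nL compound; 2 h at 37 °C, dark; add 5X beads (50 ug/mL); 1 h; read.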
# gsp agonist – qHTS for Agonist of gsp, the Etiologic Mutation Responsible for Fibrous Dysplasia/McCune-Albright Syndrome: qHTS; Potency, µM (series often up to 76.9 µM), for the others: at the highest dose activation (cAMP increase), usual class: activators; gsp mutant cells, cAMP HTRF, 30 min; control for the full effect not named in the record; hit rate 0.13% among 340,000; active = well fitted activation curve with a large enough effect; inconclusive = small, poorly fitted or top-dose-only effect, or another doubt; inactive = no such curve, though single readings can be large or run the other way; cell line not stated here;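 further: phosphodiesterase inhibitor Ro 20-1724 added with compounds to block cAMP breakdown; potency means the concentration at half of the fitted maximal effect; nearly all actives have a fitted effect of over 60% in size; about a fifth of the inactives were tested at one dose only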
#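 Cells in DMEM/10% FBS with G418 were pretreated with compounds in DMSO plus […] (300 uM stock) for 30 min at 37C. cAMP was measured by HTRF (cAMP-d2 plus anti-cAMP antibody-K) after 30 min at room temperature.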
# Sfp PPTase inh – qHTS Assay for Inhibitors of Bacillus subtilis Sfp phosphopantetheinyl transferase (PPTase); Biochemical Sfp PPTase activity, qHTS; 4'-phosphopantetheinyl transferase ffp (Bacillus subtilis), Q9F4F7; hit rate 3.5% among 310,000; Potency, µM, for inactives: max response, negative = inhibition, most hits filed as inhibitors; active means well fitted inhibition curve with a large enough effect; inconclusive means small, poorly fitted or top-dose-only effect, or another doubt; inactive means no such curve, though single readings can be large or run the other way;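 further: the enzyme is Sfp with the accession as filed and its product quenches rhodamine fluorescence; potency means the concentration at half of the fitted maximal effect; 0% = enzyme reaction without inhibitor and -100% = no enzyme wells; top concentration of the series not given in the record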
#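 Compounds were incubated with enzyme (final 15 nM) for 15 min at room temperature before substrate addition started the reaction. Fluorescence at 525 nm excitation, 598 nm emission was recorded immediately and after 30 minutes.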
# ClpP mod – qHTS Assay for Activators of ClpP. ATP-dependent Clp protease proteolytic subunit (Bacillus subtilis (strain 168)), P80244. purified B. subtilis ClpP, FRET peptide cleavage, 20 min. Potency, µM (top dose mostly 57.5 µM), without a hit: at the highest dose activity change, negative = active. hit rate 1.9% among 340,000. AID 651965, 2013; active = well fitted falling curve with a large enough effect; inconclusive = small, poorly fitted or top-dose-only effect; inactive = no such curve, though single readings can be large or run the other way; further: potency means the concentration at half of the fitted maximal effect; the source files actives as falling curves though it sought activators and does not explain the sign; nearly all actives have a fitted effect of over 65% in size; many hits overshoot -100%
# Target sequence (P80244 whole entry, looked up): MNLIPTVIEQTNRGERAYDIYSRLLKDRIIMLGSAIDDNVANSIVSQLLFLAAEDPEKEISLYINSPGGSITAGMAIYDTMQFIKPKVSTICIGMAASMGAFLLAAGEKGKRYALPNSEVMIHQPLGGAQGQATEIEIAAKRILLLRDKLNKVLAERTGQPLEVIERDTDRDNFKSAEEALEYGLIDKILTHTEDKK
#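 FRET quenching reversal measured ClpP activation: 10 microg/mL B. subtilis ClpP at pH 8 with the FRET-FV decapeptide, read at 430 nm after 320 nm excitation. The 20-min minus 0-min signal was scaled between DMSO/no-enzyme wells and ADEP (5.8 microM final).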
# gsp antagonist – qHTS for Antagonists of gsp, the Etiologic Mutation Responsible for Fibrous Dysplasia/McCune-Albright Syndrome: qHTS; gsp-mutant cells, cAMP HTRF, 30 min; control for the full effect not named in the record; Potency, µM (series often up to 76.9 µM), for inactives: top-dose activity change, negative = inhibition, most hits filed as inhibitors; hit rate 0.4% among 340,000; AID 624288, 2012; active = falling curve of any shape with a large fitted effect; inconclusive = falling curve, mostly with a smaller effect; inactive = flat or rising curve; cell line not stated here;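 further: intracellular cAMP measured with PDE inhibitor Ro 20-1724 present during compound exposure; potency means the concentration at half of the fitted maximal effect; on the % scale 0 is the no-effect control and ±100 the full control effect; nearly all actives have a fitted effect of over 65% in size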
#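 HTRF cAMP read-out (cAMP-d2 plus anti-cAMP antibody-K in lysis buffer, 30 min RT). Before lysis, cells are exposed to compounds with […] for 30 min at 37C in DPBS containing Ca/Mg, BSA and Tween 20.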
# Numbers without * were called inactive; ? = inconclusive; . = not tested or not shown; [ ] = remark or other dose.
mol,Menin MLL FP FL,gsp antagonist,TRPV1 potentiator,CtBP-E1A inh,ClpP mod,Sfp PPTase inh,gsp agonist
CN(C)c1ccc(NC(=O)c2sc(SCC(=O)Nc3ccc(Br)cc3)nc2N)cc1,?,3.0%,3.3,-2.7,1.1%,20.9%,?
Cc1cccc(NCc2cc(Cl)cc(Cl)c2O)n1,4.8,?,?,13.4,-1.3%,-1.5%,-8.7%
Cc1ccc(-c2cc(C(=O)N3CCN(c4ccccc4O)CC3)c3ccccc3n2)o1,.,-23.9%,7.1,-7.9,3.2%,?,?
CSc1ccc(S(=O)(=O)Nc2ccc(S(=O)(=O)Nc3ccc(C)cc3)cc2)cc1,0.2,-6.1%,10.9,1.0,-1.0%,15.3%,-22.6%
O=C(CNS(=O)(=O)c1ccc(Br)s1)N1CCN(C(=O)c2ccco2)CC1,0.9,3.3%,17.7,-23.7,-3.4%,24.1%,17.8%
COc1ccc(C(=O)CC(=O)C(=O)Nc2ccccc2OC)cc1,15.2,1.5%,7.3,-6.1,-0.1%,3.3%,?
CCCCCCOc1ccc(N2C(=O)CC(NCc3ccc(S(N)(=O)=O)cc3)C2=O)cc1 (stereo not drawn),3.3,6.7%,-7.8,.,-4.3%,33.9%[activator],-7.5%
COC(=O)CSc1nnc(-c2sc3cc(OC)ccc3c2Cl)n1C,4.0,?,6.9,-17.4,-8.4%,2.7%,-5.4%
Cc1ccc(S(=O)(=O)N(Cc2cccc(F)c2)C(=O)N2CCN(C)CC2)cc1,.,1.0%,5.6,2.4,-1.0%,.,34.0%
COc1ccccc1N1CCN(CC(O)COc2ccc(C)cc2C)CC1 (stereo not drawn),7.7,-0.2%,?,-6.0,.,-0.6%,-0.4%
O=C(Nc1cccnc1)C1CC(c2ccccc2O)=NO1 (stereo not drawn),1.0,4.9%,5.9,8.7,-5.6%,5.5%,8.7%
O=C1NC(=O)/C(=C/c2cccc([N+](=O)[O-])c2)N1,-3.3,-1.5%,7.4,.,2.1%,6.6%,-8.1%
Cc1nnc(-c2ccc(Cl)cc2)[nH]c1=O,-0.9,-4.6%,4.5,0.0,.,24.9%,8.1%
Fc1ccc(NC(=S)Nc2ccc(Cl)cc2Cl)cc1,-0.5,1.8%,4.8,-10.4,.,15.3%,-3.4%[15.4 µM]
NC(=O)c1ccc(NC(=O)COC(=O)c2ccccc2SCC(=O)N2CCCC2)cc1,.,.,.,-15.7,-6.7%,.,12.7%
O=C(C1CC(c2ccc(F)cc2)=NO1)N1CCN(Cc2ccccc2)CC1 (stereo not drawn),-7.2,1.8%,-20.2,1.3,1.0%,5.0%,-100.4%[inhibitor]
NC(=O)c1ccc(NC(=O)COC(=O)c2cccc(Oc3ccccc3)c2)cc1,7.5,4.7%,11.3,5.6,-0.2%,-1.6%,0.5%
COc1ccc(Nc2nc(Nc3ccc(OC)cc3OC)nc(N3CCN(C)CC3)n2)c(OC)c1,-0.7,4.2%,-7.6,-11.8,-16.0%,?,11.2%[15.4 µM]
COc1ccc(-c2nnn(CC(=O)N3CCN(c4ccc(F)cc4)CC3)n2)cc1,-1.1,-13.2%,3.8,4.7,-0.9%,2.9%,?
Cc1sc2nc(CN3CCCCC3)nc(N3CCN(C(=O)c4ccco4)CC3)c2c1C,12.7,-12.0%,24.3,-7.8,-1.1%,?,10.6%
CC[C@@H](C)C(N)c1cn([C@@H](CCC(=O)O)C(=O)N2CCNCC2)nn1 (stereo partly drawn),-1.7,-0.2%,-6.7,-18.9,-2.8%,-9.4%,.
COc1ccc(Nc2nc(NCC3CCCO3)c3ccccc3n2)c(OC)c1 (stereo not drawn),-0.7,-8.0%,-9.7,-13.6,.,15.4%,-16.7%[15.4 µM]
CCn1c(N)c(C(=O)COC(=O)CCc2nc3ccccc3c(=O)[nH]2)c(=O)[nH]c1=O,.,10.3%,-0.2,8.2,3.6%,.,?
Cc1ccccc1N1CCN(S(=O)(=O)c2ccc3oc(=O)ccc3c2)CC1,0.5,-12.4%,-27.0,-4.4,2.1%,0.9%,3.9%
O=C(NC12CC3CC(CC(C3)C1)C2)c1cccnc1Cl,-4.5,4.3%,0.8,15.7,1.3%,-0.1%,4.2%
COc1ccc(Nc2nc(N)nc(C(F)(F)F)n2)c(OC)c1,6.7,11.6%,-10.5,0.6,1.5%,5.4%,?
CCOC(=O)c1c(C)n(C)c2ccc(OC(C)=O)cc12,2.4,-6.4%,-1.2,1.2,0.2%,-2.1%,1.0%
COC(=O)c1sccc1NC(=O)Nc1cc(C)ccc1OC,0.1,-20.0%,-0.7,-13.3,-4.7%,4.7%,-26.8%
CCCCCCSc1ccc([C@H]2N[C@@](Cc3ccccc3)(C(=O)OC)[C@H]3C(=O)N(CC)C(=O)[C@@H]23)cc1,.,-5.2%,10.8,-0.4,-10.0%,.,.
COc1cc(NS(=O)(=O)c2ccc(NC(=S)NC(=O)CC(C)C)cc2)nc(OC)n1,-2.2,-15.3%,26.6,-13.9,1.2%,-6.7%,0.9%
CCC(=O)N(Cc1cc(=O)[nH]c2ccccc12)c1ccc(C)cc1,0.8,3.1%,2.5,0.0,.,-3.6%,-4.4%[15.4 µM]
CC(=O)Nc1ccc2c(c1)OCO2,-0.9,8.6%,-2.0,6.5,.,19.6%,-2.6%
CCCCNC(=O)CCn1c(=O)c2ccccc2n(CC(=O)Nc2ccccc2OCC)c1=O,-8.9,2.4%,-3.8,1.1,0.6%,15.3%,4.2%
Cn1nc(C(C)(C)C)c([N+](=O)[O-])c1C(N)=O,-2.2,3.8%,-2.9,-20.7,.,10.5%,14.7%
CC1CN(C(=O)CCC(=O)NCc2cccnc2)c2ccccc2O1 (stereo not drawn),4.1,10.7%,4.1,22.3,0.0%,15.7%,11.1%
CCc1ccc(CNC(=O)CCS(=O)(=O)Cc2ccccc2F)cc1,.,4.5%,7.9,0.0,.,12.7%,6.0%
NC(=O)C1CCN(C(=O)C(Cc2ccccc2)NC(=O)c2ccccc2)CC1 (stereo not drawn),.,14.5%,22.6,-7.3,-1.9%,.,-63.6%[inhibitor]
COc1ccc(CCNC(=O)CNS(=O)(=O)c2ccc(Br)cc2)cc1,.,2.0%,.,.,0.2%,.,-1.4%
CCOC(=O)c1sc2nc3c(SCCC#N)cc(C(=O)c4cc(F)ccc4O)cn3c(=O)c2c1C,11.9,-7.5%,15.3,-6.2,-1.9%,-1.3%,24.5%
CCCCOCCCNc1ncnc2c1[nH]c1ccccc12,-0.1,7.94µM*,-28.4,-12.5,28.2µM*,-0.5%,0.4%

# Another view of some results above.
# Each structure is followed by: Menin MLL FP FL | gsp antagonist | TRPV1 potentiator | CtBP-E1A inh | ClpP mod | Sfp PPTase inh | gsp agonist
> CCC(=O)N(Cc1cc(=O)[nH]c2ccccc12)c1ccc(C)cc1
  0.8 | 3.1% | 2.5 | 0.0 | . | -3.6% | -4.4%[15.4 µM]
> CC(=O)Nc1ccc2c(c1)OCO2
  -0.9 | 8.6% | -2.0 | 6.5 | . | 19.6% | -2.6%
> CCCCNC(=O)CCn1c(=O)c2ccccc2n(CC(=O)Nc2ccccc2OCC)c1=O
  -8.9 | 2.4% | -3.8 | 1.1 | 0.6% | 15.3% | 4.2%

# Additional results follow.
mol,Menin MLL FP FL,gsp antagonist,TRPV1 potentiator,CtBP-E1A inh,ClpP mod,Sfp PPTase inh,gsp agonist
Cc1ccc(NC(=O)CC2SC(=NCC3CCCO3)NC2=O)cc1Cl (stereo not drawn),4.6,9.7%,4.8,1.8,-2.2%,4.6%,-11.9%
COCCCNC(=O)Cn1c(=O)n(Cc2ccc(C(=O)NCCc3ccc(OC)c(OC)c3)cc2)c(=O)c2ccccc21,-4.2,-5.0%,-5.6,5.7,.,13.3%,0.8%[15.4 µM]
O=C(O)c1cc(Cl)c(Cl)cc1C(=O)N(Cc1ccccc1)Cc1ccccc1,-1.3,-5.1%,19.4,.,0.7%,16.2%,?
CCOC(=O)c1ccccc1NC(=O)CSc1nc2ccccc2c(=O)n1CCCN1CCOCC1,.,-27.7%,.,9.7,.,.,14.1%
COc1cc(OCc2ccccc2)c(C(=O)/C=C/c2ccc3c(c2)OCO3)c(OC)c1OC,.,-22.5%,.,-1.7,.,.,16.6%[15.4 µM]
CC(OC(=O)c1ccc(F)c(S(=O)(=O)N2CCOCC2)c1)C(=O)NCC1CCCCC1 (stereo not drawn),.,?,2.8,.,-2.0%,.,1.8%
Cn1c(=O)c2c(ncn2CC(=O)N/N=C/C(Cl)=C/c2ccccc2)n(C)c1=O,4.9,-4.3%,0.4,-6.6,-7.4%,2.3%,-6.6%
O=C(CNS(=O)(=O)c1ccc(Br)cc1)Nc1ccc2c(c1)OCCO2,1.2,7.2%,-0.2,4.8,-0.6%,10.5%,6.1%
CCOC(=O)N1CCN(C(=O)CS(=O)(=O)Cc2nc(-c3cccc(OC)c3)oc2C)CC1,-4.3,-7.0%,0.1,4.0,-16.4%,10.9%,16.8%
COc1ccc(C(=O)OCCN=C2NS(=O)(=O)c3ccccc32)cc1OC,4.5,5.2%,-4.9,3.5,-1.6%,3.5%,-28.4%
Cc1ccc(C(=O)NCCc2ccc(S(N)(=O)=O)cc2)o1,0.3,2.8%,-7.1,2.6,.,-4.0%,-1.6%
CCCc1nc2ccccc2c(=O)n1/N=C/c1ccc(O)cc1O,4.2,-15.1%,28.3,?,0.5%,-1.5%,28.1%
Fc1cccc(-c2ncc(-c3ccccc3)o2)c1,.,-4.7%,.,6.2,0.8%,.,-7.5%[15.4 µM]
